Bioassay records: PubChem, National Center for Advancing Translational Sciences (NCATS)
Six1-Eya2 blk: inhibitors of human Six1/Eya2 interaction; AlphaScreen GST-Six1/His-Eya2 binding, biochemical; stronger effect = lower value; control for the full effect not named in the record; Q15475+O00167; AID 651725; 0.56% of 360,000 active; activity change, % (test concentration not listed); in the data active = activity change below about -65%; inconclusive = about -30% to -65%; inactive = above about -30%; further: on the % scale 0 is the no-effect control and ±100 the full control effect; compound concentration not given in the record
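GST-Six1 + His-Eya2 (5X stock: 250/500 nM); Tris pH 8.0, 300 mM NaCl, 0.05% BSA, 0.02% Tween 20; GSH donor/Ni acceptor beads; 1 h 37 °C dark; AlphaScreen readout.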
gsp ag: activates gsp, the McCune-Albright syndrome mutation. gsp mutant cells, cAMP HTRF, 30 min; control for the full effect not named in the record. Potency, µM (titrated, usually from 76.9 µM), inactives show top-dose activation (cAMP increase), hits mostly activators. 0.13% of 340,000 active. AID 624287; active = well fitted activation curve with a large enough effect; inconclusive = small, poorly fitted or top-dose-only effect, or another doubt; inactive = no such curve, though single readings can be large or run the other way; cell line not stated here;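 further: phosphodiesterase inhibitor Ro 20-1724 added with compounds to block cAMP breakdown; potency means the concentration at half of the fitted maximal effect; nearly all actives have a fitted effect of over 60% in size; about a fifth of the inactives were tested at one dose only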
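Cells in DMEM/10% FBS with G418 were pretreated with compounds in DMSO plus […] (300 uM stock) for 30 min at 37C. cAMP was measured by HTRF (cAMP-d2 plus anti-cAMP antibody-K) after 30 min at room temperature.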
gsp antag: antagonists of gsp mutant (McCune-Albright syndrome). gsp-mutant cells, cAMP HTRF, 30 min; control for the full effect not named in the record. Potency, µM (series often up to 76.9 µM), without a hit: top-dose activity change, negative = inhibition, usual class: inhibitors. 0.4% of 340,000 active; active = falling curve of any shape with a large fitted effect; inconclusive = falling curve, mostly with a smaller effect; inactive = flat or rising curve; cell line not stated here;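 further: intracellular cAMP measured with PDE inhibitor Ro 20-1724 present during compound exposure; potency means the concentration at half of the fitted maximal effect; on the % scale 0 is the no-effect control and ±100 the full control effect; nearly all actives have a fitted effect of over 65% in size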
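G418-selected cells were plated in DMEM/10% FBS for 16-24 h at 37C, then treated with compounds plus the PDE inhibitor […] (300 uM solution added) for 30 min at 37C. Intracellular cAMP was measured by HTRF after 30 min lysis at room temperature.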
D2 potentiator: potentiates the human D2 dopamine receptor allosterically; P14416; DiscoveRx D2 beta-arrestin cells, luminescence, 90 min; 100% = 57 uM dopamine signal; potentiation, % (concentration not given with the values); 0.23% of 360,000 active; AID 624464; active = potentiation of 50% or more; inconclusive = 30% to 50%; inactive = 30% or less;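 further: compound concentration not given in the record; tested on top of an EC20 dose of dopamine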
Target sequence (P14416 whole entry, looked up): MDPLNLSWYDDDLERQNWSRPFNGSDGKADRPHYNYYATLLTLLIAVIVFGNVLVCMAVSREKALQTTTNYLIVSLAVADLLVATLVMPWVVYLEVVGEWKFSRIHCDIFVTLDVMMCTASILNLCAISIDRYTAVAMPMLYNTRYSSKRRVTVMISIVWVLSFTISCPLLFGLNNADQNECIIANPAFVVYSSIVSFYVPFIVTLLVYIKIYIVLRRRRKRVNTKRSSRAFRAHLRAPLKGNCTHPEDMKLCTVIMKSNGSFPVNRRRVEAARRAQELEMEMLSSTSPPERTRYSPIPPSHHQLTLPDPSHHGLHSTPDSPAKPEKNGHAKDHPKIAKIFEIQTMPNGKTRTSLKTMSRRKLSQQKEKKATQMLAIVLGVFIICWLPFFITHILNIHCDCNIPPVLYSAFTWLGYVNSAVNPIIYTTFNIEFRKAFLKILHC
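PathHunter D2 cells, attached overnight at 37 deg C, received compound in DMSO plus dopamine at EC20 (50 nM final) for 90 min at 37 deg C. Beta-arrestin recruitment was read as luminescence after 1 h with detection reagent at ambient temperature.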
D2 agonist: activates the human D2 dopamine receptor. P14416. DiscoveRx PathHunter D2 beta-arrestin, luminescence, 90 min; 100% = 57 uM dopamine signal. activation, % (test concentration not listed). 0.084% of 360,000 active. AID 624465; in the data active = activation above about 40%; inconclusive = about 15% to 40%; inactive = below about 15%; further: compound concentration not given in the record; the text of the record calls up to 30% inactive
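DiscoveRx PathHunter D2 beta-arrestin cells (2,100/well) attached overnight, then compound-stimulated 90 min at 37 C in HBSS/10 mM HEPES/0.1% Tween-20 buffer; beta-galactosidase complementation read by luminescence after 1 h at ambient temperature. Dopamine 57 uM final (EC100) as control.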
CtBP-E1A blk: blocks the CtBP interaction with E1A. activity change, % (no concentration beside the values). AlphaScreen GST-E1A/His-CtBP binding, 1536-well; stronger effect = lower value; control for the full effect not named in the record. 0.49% of 340,000 active; in the data active means activity change below about -65%; inconclusive means about -30% to -65%; inactive means above about -30%; further: on the % scale 0 is the no-effect control and ±100 the full control effect; compound concentration not given in the record
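Homogeneous bead-based format: GST-tagged E1A captured on glutathione donor beads, His-tagged CtBP on nickel acceptor beads; compounds precede bead addition by 2 h at 37 °C.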
Active calls of the source: *; u = inconclusive; x = not tested or not shown; [ ] = remark or other dose.

no. | canonical_smiles | D2 potentiator | gsp ag | gsp antag | CtBP-E1A blk | Six1-Eya2 blk | D2 agonist
1 | CC1Sc2ccc(S(=O)(=O)NCCc3ccc(S(N)(=O)=O)cc3)cc2NC1=O (stereo not drawn) | -6 | 45% | 8% | 0 | 1 | -2.3
2 | COCCn1c(SCC(=O)Nc2cc(C)on2)nc2c(c1=O)SCC2 | -2 | -46%[inhibitor] | -12% | 6 | 0 | -1.3
3 | O=C1Nc2cc(Cl)c(Cl)cc2N(O)N1c1cc(Cl)cc(Cl)c1 | 0 | 6% | 10% | -12 | -2 | 0.5
4 | COc1cc(S(=O)(=O)NCc2cccnc2)c(OC)cc1Br | -15 | -22% | -8% | -1 | -2 | -0.3
5 | COc1cc(CCCN2C(N)=NC[C@H]2Cc2ccc(O)cc2)cc(OC)c1OC | -8 | 13% | 5% | x | 1 | -2.9
6 | COc1ccc(C(=O)OC(C)C(=O)NC(C)CCc2ccccc2)cc1OC (stereo not drawn) | 1 | 11% | -11% | x | -2 | -3.8
7 | N#C/C(=N\Nc1cc(Cl)cc(Cl)c1)c1nnc2n1CCCCC2 | -4 | -22% | -24% | -4 | -16 | -3.0
8 | CCOC(=O)[C@H]1[C@H]2COc3ccc(Br)cc3[C@@H]2N2C(=O)[C@H](C)NC(=O)[C@@]12C | -3 | 17% | 0% | -2 | 2 | -0.7
9 | O=[N+]([O-])c1ccc(N2CCCC2)nc1N1CCCC1 | 0 | -3%[15.4 µM] | u | 0 | -19 | 2.0
10 | O=S1(=O)C[C@@H](N2CCC[C@@H]2CO)[C@H](COCc2ccccc2)N1 | -9 | x | x | 4 | 2 | -4.4
11 | N#Cc1c2n(c(=S)n(-c3ccc(OC(F)F)cc3)c1=O)CCCCC2 | -40 | 12% | -9% | x | 4 | 5.9
12 | CCN(c1ccccc1)S(=O)(=O)c1cc(C(=O)Oc2ccc3c(C)cc(=O)oc3c2)ccc1C | -10 | -18% | 15% | 3 | 1 | 2.7
13 | CCc1ccccc1NC(=O)Nc1cccc(F)c1 | -4 | 1% | 0% | x | 5 | 1.9
14 | CCN(CC)c1nc(Nc2ccccc2)nc(Oc2ccc(=O)[nH]n2)n1 | -4 | -3% | -9% | 0 | -4 | -2.3
15 | Clc1ccccc1-c1nnc2sc(-c3ccc(Br)o3)nn12 | -1 | 0% | 2% | -14 | -7 | -2.1
16 | COc1ccc(NC(=S)N/N=C2\CC(C)(C)Oc3ccc(OC)cc32)cc1 | -15 | -11% | 0% | -17 | -18 | 0.0
17 | C[C@H]1CN([C@@H](C)CO)C(=O)CCCn2cc(nn2)CO[C@@H]1CN(C)C(=O)Nc1cccc2ccccc12 | 13 | -43%[inhibitor] | x | 4 | -8 | -3.1
18 | COc1cc(C2SCC(=O)N2CCc2ccc(OC)c(OC)c2)ccc1O (stereo not drawn) | -1 | -9%[15.4 µM] | 13% | x | 1 | 8.0
19 | CC(NC(=O)COC(=O)c1ccc(N(C)C)cc1)c1ccccc1 (stereo not drawn) | 3 | 4%[15.4 µM] | -13% | 2 | 4 | 3.5
20 | CC(=O)Nc1ccc(SCC(=O)NNC(=O)CN(C)S(=O)(=O)c2ccc(C)cc2)cc1 | 3 | -3%[15.4 µM] | 6% | 2 | 11 | -1.6
21 | COc1ccccc1NS(=O)(=O)c1cc(NC(=O)c2cc(F)c(F)c(F)c2F)ccc1N1CCOCC1 | 3 | u | -7% | 0 | -7 | -0.3
22 | CN(C)c1cc[n+](CC(=O)c2ccc(Br)cc2)cc1 | -12 | 12%[15.4 µM] | 10% | -1 | 7 | -1.7
23 | CC(=O)c1sc(NC(=O)COc2ccc(Br)cc2)nc1C | -10 | 11% | -1% | 1 | 7 | -3.9
24 | O=C(CCCC(=O)N(CC(=O)NC1CCCCC1)c1ccccc1F)Nc1ccccn1 | -4 | 15% | 0% | 7 | 4 | -3.3
25 | FC(F)(F)c1ccccc1Cc1c(C2CCCCC2)nc2ccc(Cl)cn12 | -10 | x | x | -8 | -7 | -5.0
26 | COC(=O)[C@H]1C[C@@H]1[C@H](NC(=O)OCc1ccccc1)c1ccccc1 | -1 | u | 1% | -2 | 2 | -1.2
27 | CC(C)(C)c1ccc(Cn2ccc(-c3ccc4c(c3)OCO4)n2)cc1 | -16 | 0% | -2% | 20 | 9 | 0.1
28 | COC(=O)c1ccc(-c2cc(CC3(C(=O)OC)CCN(C(=O)OC(C)(C)C)CC3)on2)cc1 | 4 | 1% | -5% | x | -9 | 6.6
29 | COc1ccc(C)cc1S(=O)(=O)N1CCN(c2ccccc2)CC1 | -3 | -39%[inhibitor] | 3% | -5 | -11 | -3.8
30 | Cc1ccccc1-n1nc(C)c2c1N=C1C(Cl)=CC(Cl)=CN1C2c1ccc(C(=O)O)cc1 (stereo not drawn) | -8 | -11% | -9% | 1 | -9 | 1.9
31 | Nc1ccc(Sc2nnnn2-c2ccccc2)c(Cl)c1 | -8 | 3% | -5% | 5 | -1 | -1.6
32 | O=C(CCS(=O)(=O)c1ccccc1)OCc1ccc([N+](=O)[O-])cc1 | -13 | -27% | 10% | -9 | -7 | -2.8
33 | Cc1csc(SCc2nc3scc(-c4ccccc4)c3c(=O)[nH]2)n1 | -20 | 17%[15.4 µM] | -6% | -1 | 0 | 0.2
34 | c1ccc(CNCCN2CCNCC2)nc1 | -2 | 19% | 1% | -72* | -86* | -1.3
35 | O=C(COC(=O)c1cc([N+](=O)[O-])ccc1N1CCOCC1)Nc1c(Cl)cccc1Cl | -3 | 13% | -15% | -3 | -4 | -1.4
36 | CC(=O)Nc1cccc2ncccc12 | -6 | 8%[15.4 µM] | 11% | 10 | 12 | -2.9
37 | Cc1ccc(Cl)cc1NC(=O)[C@@H]1CCC(=O)N1C1OC(=O)c2ccccc21 (stereo partly drawn) | 6 | x | 7% | 9 | 0 | 1.3
38 | O=S(=O)(c1ccc(F)c2ccccc12)N1CCCCC1 | 3 | 27% | -7% | 8 | 14 | -1.7
39 | Cc1cccc(NC(=O)COC(=O)CN2CCCCCC2=O)c1C | -31 | -3%[15.4 µM] | 10% | -16 | 16 | -2.3
40 | CC(C)Oc1ccc(OCCn2c(=S)[nH]c3c(N)ncnc32)cc1 | -18 | -2% | -17% | x | -1 | 11

Another view of 4 compounds above:
#10 O=S1(=O)C[C@@H](N2CCC[C@@H]2CO)[C@H](COCc2ccccc2)N1
  D2 potentiator: -9
  gsp ag: x
  gsp antag: x
  CtBP-E1A blk: 4
  Six1-Eya2 blk: 2
  D2 agonist: -4.4

#31 Nc1ccc(Sc2nnnn2-c2ccccc2)c(Cl)c1
  D2 potentiator: -8
  gsp ag: 3%
  gsp antag: -5%
  CtBP-E1A blk: 5
  Six1-Eya2 blk: -1
  D2 agonist: -1.6

#29 COc1ccc(C)cc1S(=O)(=O)N1CCN(c2ccccc2)CC1
  D2 potentiator: -3
  gsp ag: -39%[inhibitor]
  gsp antag: 3%
  CtBP-E1A blk: -5
  Six1-Eya2 blk: -11
  D2 agonist: -3.8

#17 C[C@H]1CN([C@@H](C)CO)C(=O)CCCn2cc(nn2)CO[C@@H]1CN(C)C(=O)Nc1cccc2ccccc12
  D2 potentiator: 13
  gsp ag: -43%[inhibitor]
  gsp antag: x
  CtBP-E1A blk: 4
  Six1-Eya2 blk: -8
  D2 agonist: -3.1

(continued)
no. | canonical_smiles | D2 potentiator | gsp ag | gsp antag | CtBP-E1A blk | Six1-Eya2 blk | D2 agonist
41 | O=C(O)c1ccc(CS(=O)(=O)c2ccc(Br)cc2)cc1 | 0 | -7% | -7% | 0 | 3 | -0.9
42 | CCC(C)Cn1cnc2c(SCc3ccccn3)nc(N)nc21 (stereo not drawn) | 3 | -15% | 9% | 0 | 5 | 3.3
43 | CC(NC(=O)c1cccs1)C1CCCO1 (stereo not drawn) | 0 | -1%[15.4 µM] | 4% | 6 | 0 | 0.2
44 | S=C1NCN(Cc2ccco2)CN1 | -2 | 1%[15.4 µM] | 8% | 5 | -6 | 0.2
45 | CCCCn1c(N)c(N(C(=O)CSc2nnnn2-c2ccccc2C)C2CCCC2)c(=O)[nH]c1=O | -15 | -34% | -6% | 2 | 0 | -5.1
46 | CN(CCN1CCOCC1)Cc1nc(-c2ccccc2)no1 | -9 | 6% | 1% | 7 | -1 | -2.0
47 | CCOC(=O)c1cccc(C(=O)OCC)n1 | -9 | -4% | 4% | 0 | -2 | -2.7
48 | CCOC(=O)C(=O)Nc1sc(C(=O)N(CC)CC)c(C)c1C#N | -25 | 0%[15.4 µM] | -1% | 8 | 4 | -4.3
49 | O=C(Nc1ccc(Cl)cc1F)C1CC1 | -12 | 4% | 9% | 1 | -4 | -2.5
50 | CC(C)C(=O)Nc1ccc2oc(-c3cc(F)c(F)cc3Cl)nc2c1 | -2 | 18% | 9% | 5 | 5 | -3.9
51 | O=C1C=C(c2n[nH]nc2-c2ccccc2)C[C@@H](c2ccc(F)cc2)C1 | 2 | 28% | x | 1 | -6 | -4.6
52 | CCSc1nnc(NC(=O)COc2ccccc2[N+](=O)[O-])s1 | 3 | 3% | 1% | -8 | -1 | -1.5
53 | Cn1c(=O)[nH]c(=O)c2c1nc(NN)n2CCOc1ccccc1 | 2 | -2%[15.4 µM] | u | -13 | u | 1.3
54 | O=C(COc1ccccc1)Nc1cccc(-c2nnc(-c3ccccc3)o2)c1 | 3 | 6% | u | 1 | -1 | 1.6
55 | CCNC(=O)C1(C)CCCN(C(=O)c2cc(C)n(C(C)(C)C)n2)C1 (stereo not drawn) | -5 | x | x | 0 | 32 | -1.6
56 | Cc1c(NC(=O)C(C)Sc2n[nH]c(N)n2)c(=O)n(-c2ccccc2)n1C (stereo not drawn) | -20 | -2% | -1%[15.4 µM] | 6 | 4 | -0.6
57 | CC(C)(C)c1ccc(S(=O)(=O)N2CCN(c3ccccn3)CC2)cc1 | -5 | u | 8% | 2 | 2 | -4.9
58 | Clc1cccc(CSc2ncn(-c3ccccc3)n2)c1 | 4 | 3% | 0% | 33 | 35 | -1.2
59 | COc1nc(Nc2cccc(F)c2)nc(OC)n1 | -28 | 12% | 3% | x | 19 | -2.8
60 | Nc1nc2c(c(=O)[nH]1)C(c1cccc3ccccc13)C1=C(N2)c2ccccc2C1=O (stereo not drawn) | -33 | -1%[15.4 µM] | x | 11 | u | -3.8
61 | CC(C)NC(=O)c1c(CSc2ccccc2)noc1C(=O)NCc1ccccc1 | -3 | -9% | -3% | -2 | -28 | -3.1

Complete entries, quoted from the list. Screens in order: D2 potentiator	gsp ag	gsp antag	CtBP-E1A blk	Six1-Eya2 blk	D2 agonist
`O=C(COc1ccccc1)Nc1cccc(-c2nnc(-c3ccccc3)o2)c1` is listed with 3	6%	u	1	-1	1.6
`CN(CCN1CCOCC1)Cc1nc(-c2ccccc2)no1` is listed with -9	6%	1%	7	-1	-2.0
